# Assay outcomes as filed in PubChem.
# Vif TR-FRET: inhibitors of Vif binding to APOBEC3G peptide, primary screen, biochemical, TR-FRET, GST-Vif 1-94, biotin-A3G peptide, dose response retest (AID 1117319). TR-FRET GST-Vif / biotin-A3G peptide binding; higher % means a stronger effect; test concentration not given here; strong numbers were not always called active. inhibition, %, or IC50 in µM where a hit was titrated. actives 0.57% (n = 260,000);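 active means above the screen mean plus three standard deviations and confirmed in dose response; inconclusive means results disagree or hit not tested in dose response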;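 further: Vif residues 1-94 fused to GST binding biotinylated APOBEC3G peptide 110-148; 0% = full assay without inhibitor and 100% = GST in place of GST-Vif; retest series ran down from 100 µM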
# RanGTP-Imp inh: disruptors of Ran-importin-beta complex formation – biochemical, FRET, CFP-Ran, YFP-importin-beta, homogeneous, primary screen; cell-free CFP-Ran/YFP-importin-beta FRET ratio; actives 1.1% (n = 300,000); inhibition, % (no concentration beside the values);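 active means most replicates above 15%; inconclusive means exactly half above 15%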;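 further: 0% = DMSO wells and 100% = Ran loaded with GDP instead of GTP; wells of about 40 µL received 100 nL stock; the first replicate is given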
# Beta cell apopt: beta cell apoptosis inhibition. INS-1E cytokine-induced death, ATP luminescence, 48 h; percent of positive-control rescue, neutral wells zero. protection from apoptosis, % (no concentration beside the values). actives 0.8% (n = 300,000);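 active means all replicates at 75% or more, or half of them and the mean; inconclusive means half reach 75% but not the mean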;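 further: 0% = cytokine-treated negative control wells and 100% = positive control rescue; higher means more ATP so stronger rescue from cytokine killing; wells of about 40 µL received 100 nL stock; the first replicate is given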
# T cruzi repl: T. cruzi replication inhibition; T. cruzi beta-gal in NIH3T3, luminescence, 90 h; inhibition, % (test concentration not listed); actives 1.4% (n = 300,000); AID 1885;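 active means mean inhibition across valid replicates above about 55%, limit read from the data; inconclusive means mean below that limit but half or more replicates reach it; inactive means mean below it, under half of replicates reach it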;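 further: signal also drops with host cell toxicity which is not excluded here; 0% = plate median of DMSO wells and 100% = zero luminescence signal; higher percent means less beta-gal luminescence so fewer parasites; stock transfer was 50 nL into about 50 µL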
# Ecoli rRNA inh: selective bacterial rRNA inhibition in E. coli. actives 1.6% (n = 350,000). AID 720706. GFP signal change (wild-type ribosome), % (no concentration beside the values). E. coli WT GFP vs humanized-ribosome RFP mutants, fluorescence, 24 h; hits give low values; DMSO median 0, no signal -100;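 active means significant combined selectivity score with lowered wild-type GFP, culture density cut under 30%, mutant RFP and density less affected; inactive means any of these conditions unmet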; further: one replicate is shown; some compounds called inactive have numbers as strong as hits
# Calb FLC: C. albicans growth modulation with fluconazole. actives 0.57% (n = 300,000). growth inhibition, % (no concentration beside the values). AID 1979. C. albicans CaCi-2 (fluconazole-resistant clinical isolate) + fluconazole, Alamar Blue growth, 48 h;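 active means most replicates above 75%; inconclusive means exactly half above 75%; inactive means most below 75%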;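 further: all wells also contain fluconazole at 8 µg/ml as a sub-toxic cotreatment; 0% = median of DMSO wells and 100% = median of geldanamycin control wells; wells of about 8 µL received 7.5 nL stock; the first replicate is given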
# MLL AF4-AF9 inh: MLL-AF4/AF9 protein interaction inhibition | AID 651704 | inhibition, % at 10 µM | P42568 | AlphaScreen, biotin-AF4 peptide binding to FLAG-AF9 | actives 0.47% (n = 350,000);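 active means every replicate reaching a set inhibition limit, whatever the replicate mean, cut at about 25% in these data; inconclusive means mean inhibition reaches that limit but some replicates miss it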;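 further: 0% = plate neutral control median and 100% = total signal loss; the record names both 10 and 1 µM as test concentration; the first replicate is given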
# Target sequence (P42568 whole entry, looked up): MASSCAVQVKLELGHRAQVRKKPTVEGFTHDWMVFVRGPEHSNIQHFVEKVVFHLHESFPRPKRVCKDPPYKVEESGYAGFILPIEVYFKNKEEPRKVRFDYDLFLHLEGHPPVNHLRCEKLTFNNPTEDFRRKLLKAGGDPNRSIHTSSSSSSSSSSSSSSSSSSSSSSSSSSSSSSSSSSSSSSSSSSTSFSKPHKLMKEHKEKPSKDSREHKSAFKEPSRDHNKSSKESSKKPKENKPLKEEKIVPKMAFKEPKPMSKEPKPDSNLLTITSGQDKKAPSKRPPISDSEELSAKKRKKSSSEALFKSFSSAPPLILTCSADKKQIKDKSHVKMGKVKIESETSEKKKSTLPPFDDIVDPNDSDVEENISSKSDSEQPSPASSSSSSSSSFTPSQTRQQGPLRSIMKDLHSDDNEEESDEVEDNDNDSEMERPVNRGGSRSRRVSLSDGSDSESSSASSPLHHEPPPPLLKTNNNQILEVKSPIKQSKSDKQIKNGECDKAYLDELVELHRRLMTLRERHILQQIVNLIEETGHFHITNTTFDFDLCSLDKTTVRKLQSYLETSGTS
# A1 inh: inhibitors of the anti-apoptotic protein A1, read as caspase activation. MEF A1-2A-BIM cells, Caspase-Glo 3/7 luminescence, 3 h; percent of clofoctol response, vehicle zero. caspase activation, % (test concentration not listed). actives 0.066% (n = 330,000);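 active means over half of replicate activation scores above 10%, or exactly half above 10 with the replicate mean above 10; inconclusive means replicate mean below 10 yet half the replicates above 10; inactive means over half of replicates below 10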;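 further: wells of about 30 µL received 50 nL stock; many hits fall short of the cut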
# Ecoli rRNA inh OD600: second read-out of Ecoli rRNA inh, no call of its own (marks repeat the call); OD600 change, %; measured here: OD600 growth;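 optical density of the mix in the first replicate; 0 = DMSO median and -100 = no signal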
# Ecoli rRNA inh RFP: also measured in Ecoli rRNA inh; calls as there; RFP signal change, %; measured here: RFP humanized mutant strains;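 first replicate; 0 = DMSO median and -100 = no signal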
# Active calls of the source: *; u = inconclusive; x = not tested or not shown. A portion of the library. The share of hits here may be higher or lower than overall.
SMILES,Vif TR-FRET,RanGTP-Imp inh,Beta cell apopt,T cruzi repl,Ecoli rRNA inh,Ecoli rRNA inh OD600,Ecoli rRNA inh RFP,Calb FLC,MLL AF4-AF9 inh,A1 inh
CCOc1ccc(C(C)=O)cc1CN1C(=O)NC2(CCCCCC2)C1=O,4%,4.2,x,-4,-2,-17,0.8,-5,3.3,-0.5
COc1ccccc1-c1nnc(NC(=O)OCC(C)C)s1,19%,-3.8,x,4,x,x,x,-1,x,-0.7
O=C(NCc1ccc(F)cc1)C(=O)NCC(c1ccco1)N1CCOCC1 (stereo not given),8%,-2.3,-5,-5,0,-5,-9.9,7,-46,-0.7
CCCN(C(=O)c1c(CC)noc1C)c1c(N)n(Cc2ccccc2)c(=O)[nH]c1=O,-6%,0.8,x,-15,11,6,-1.2,2,-0.8,0.0
CC(=O)c1csc(COc2ccccc2)n1,-3%,0.9,-8,8,6,14,-0.4,-7,-2.6,-2.2
CCCn1cnc2c(=O)oc3ccccc3c21,-2%,-2.3,0,-15,x,x,x,x,x,0.6
COc1ccccc1C(C[N+](=O)[O-])c1c(N)n(C)c(=O)n(C)c1=O (stereo not given),u,-0.6,39,-21,-34*,11*,3.4*,39*,-4.9,0.2
CC(=O)c1ccc(NC(=O)N2C3CCC2CC(O)(c2cccnc2)C3)cc1 (stereo not given),-12%,4.2,0,-16,10,9,3.6,-18,0.0,0.3
Cc1ccc(C(=O)NC2CC3CCC(C2)N3C)cc1 (stereo not given),x,x,-6,x,18,13,-1.7,x,-0.7,0.7
CC(C)CCC(O)(CCC(C)C)C(=O)NNc1ccccc1,-3%,0.2,-1,-7,x,x,x,-64,x,-1.1
Cc1ccc(S(=O)(=O)N(C)c2ccc(OC(=O)c3ccc(N4CCCC4=O)cc3)cc2)cc1,x,1.7,-5,0,10,16,-2.4,-10,0.5,-0.9
O=C(Cc1ccc(-c2ccccc2)cc1)NC(c1ccccc1)c1ccccc1,15%,-4.4,-9,3,x,x,x,11,-1.2,-0.2
Cc1cc(C)c(S(=O)(=O)N(CC(=O)O)C2CCCCC2)c(C)c1,-6%,-1.2,-3,-4,x,x,x,2,x,-0.6
N#Cc1cc(-c2ccccc2)[nH]c1-c1nccc2ccccc12,1%,-3.4,47,24,-32,-36,-13,x,3.7,-0.1
Cc1cnnc2c1-c1nonc1CC2,6%,0.9,-1,7,x,x,x,23,x,-0.1
O=C(Nc1ccc(S(=O)(=O)Nc2ncccn2)cc1)c1cccc(Br)c1,x,-2.6,x,4,-2,9,9.5,-5,-1.9,0.2
COc1ccc(C2c3ccc4ccccc4c3Oc3ncn(CCN4CCOCC4)c(=N)c32)cc1OC (stereo not given),-7%,3.4,x,36,x,x,x,39,9.2,-0.4
O=C(c1cccc(N2C(=O)C3CC=CCC3C2=O)c1)N1CCCc2ccccc21 (stereo not given),20%,-1.4,4,-3,-2,0,1.1,-14,0.8,0.6
COC(=O)c1c(NS(=O)(=O)c2ccccc2)csc1C,19%,-3.6,-3,-4,19,13,-1.6,13,-11,0.1
CC(=O)N1CCN(C(=S)NCc2ccccc2)CC1,x,-1.1,-2,-6,x,x,x,1,x,0.2

# Some of these compounds in order of their number in Ecoli rRNA inh RFP, lowest first.
SMILES | Vif TR-FRET | RanGTP-Imp inh | Ecoli rRNA inh | Ecoli rRNA inh OD600 | Ecoli rRNA inh RFP | MLL AF4-AF9 inh
Cc1ccc(C(=O)NC2CC3CCC(C2)N3C)cc1 (stereo not given) | x | x | 18 | 13 | -1.7 | -0.7
CC(=O)c1ccc(NC(=O)N2C3CCC2CC(O)(c2cccnc2)C3)cc1 (stereo not given) | -12% | 4.2 | 10 | 9 | 3.6 | 0.0
O=C(Nc1ccc(S(=O)(=O)Nc2ncccn2)cc1)c1cccc(Br)c1 | x | -2.6 | -2 | 9 | 9.5 | -1.9

# Other compounds follow:
SMILES,Vif TR-FRET,RanGTP-Imp inh,Beta cell apopt,T cruzi repl,Ecoli rRNA inh,Ecoli rRNA inh OD600,Ecoli rRNA inh RFP,Calb FLC,MLL AF4-AF9 inh,A1 inh
Cc1ccc(C2=NCCn3nc4cc(C(F)(F)F)ccc4c32)cc1,x,x,-6,x,10,6,-1.3,x,-1.8,1.2
Cc1cc(C)nc(N(C#N)CC(=O)Nc2ccccc2)n1,1%,6.3,3,5,x,x,x,9,x,-0.4
COc1ccc(OC)c(NC(=O)COC(=O)c2ccc(OC)c(S(=O)(=O)N3CCCC3)c2)c1,x,x,-6,x,-2,-10,2.4,x,2.1,-0.5
O=[N+]([O-])c1cc(C(F)(F)F)ccc1NCC1CCCO1 (stereo not given),-3%,-5.8,-3,-2,3,12,4.6,-4,4.1,-0.5
CCN(CC(=O)Nc1c(F)cccc1F)C(=O)c1ccc(-c2ccccc2)cc1,1%,-2.7,2,-22,-19,-23,-4.7,6,-0.7,-0.4
O=[N+]([O-])c1cccc(-c2nnc(-c3ccc4c(c3)OCO4)o2)c1,u,-1.1,-1,2,10,12,2.5,-11,5.3,-4.9
Cc1ccc(C(C(=O)NC2CCCCC2)N(Cc2ccco2)C(=O)Cn2cnc3ccccc32)cc1 (stereo not given),-3%,-1.7,16,17,x,x,x,-5,x,-1.8
Cn1cc(C[C@H](NC(=O)OC(C)(C)C)C(=O)N[C@@H](CO)Cc2ccccc2)c2ccccc21,x,-2.6,7,-5,1,-12,7.1,-1,-2.2,-0.1
CN1CCN(c2nc(-c3ccccn3)nc3ccccc23)CC1,u,0.7,17,13,x,x,x,-14,x,0.7
CC1(C)CC[C@]2(C(=O)O)CC[C@]3(C)C(=CCC4[C@@]5(C)CC[C@H](O)C(C)(C)C5[C@H](O)C[C@]43C)[C@@H]2C1 (stereo not given in full),x,4.8,-7,11,x,x,x,5,x,-1.2
O=C(CSc1nnnn1-c1ccccc1)Nc1ncc(Cc2cc(Cl)ccc2Cl)s1,-2%,-1.6,-5,3,x,x,x,-7,x,0.2
COc1cccc(C(=O)Nc2cccc(OCC(=O)O)c2)c1,1%,-1.3,-2,-3,x,x,x,7,x,-9.4
CCC(=O)N1N=C2CC(C)(C)OCC2C1c1ccccc1 (stereo not given),x,0.3,1,-54,x,x,x,15,x,0.2
O=C(NC1CCCCCC1)C1Cc2ccccc2CN1C(=O)c1ccco1 (stereo not given),-7%,2.1,-2,-3,6,-1,4.1,9,-1.3,-0.1
FC(F)(F)c1nnc2ccc(N3CCCCC3)nn12,x,5.9,x,-6,x,x,x,1,-0.5,0.8
CCN(CC)c1ccc(/C=C/c2nc3ccccc3s2)cc1,5%,-55,-1,27,x,x,x,u,x,-8.9
COc1ccc(-n2c(SCC(N)=O)nnc2-c2ccccc2F)cc1,19%,8.3,-1,1,x,x,x,23,x,0.6
Cc1ccc(N(CC(O)CN2CCCC2)S(=O)(=O)c2ccc(C)cc2)cc1 (stereo not given),-4%,0.0,-2,11,7,2,1.1,0,x,0.1
COc1ccc(NC(=O)Nc2cccc(C)n2)cc1,-1%,0.5,6,-5,-5,-7,-2.3,-19,1.2,-1.7
CSc1ccccc1-n1nnnc1SCC(=O)Nc1ccccc1C,-4%,1.0,0,-3,x,x,x,-12,x,0.4
Oc1ccc(Br)cc1/C=N/n1c(-c2ccccc2)n[nH]c1=S,x,18*,x,-4,4,-2,1.3,-8,5.9,0.3
O=C(Cn1cnc2ccccc2c1=O)NCc1cccs1,-5%,-2.8,-4,-9,18,1,-1.5,4,-5.2,0.0
Cc1cc(C)c(OC2(c3ccccc3)OC(=O)c3ccccc32)c(C)c1 (stereo not given),2%,3.6,6,15,x,x,x,8,x,-0.5
CCCc1nc(C)cc(N2CCN(c3ccccc3)CC2)n1,8%,-4.2,-4,10,3,4,8.4,3,6.0,0.4
Cc1ccccc1NC(=O)Nc1cnccn1,x,1.7,2,8,2,2,-2.7,0,-0.6,-3.7
COc1c(Cl)cc(Cl)cc1/C=N/NC(=O)c1nnn(-c2nonc2N)c1CN1CCC(C)CC1,x,0.5,26,33,15,10,-1.7,-4,-2.4,-0.7
COc1ccc(CCNC(=O)c2cccc(Br)c2)cc1OC,-1%,3.4,6,-3,-7,2,-1.2,0,-1.9,-0.7
O=C(C1CC(=O)N(c2ccccc2)C1)N1CCCCCC1 (stereo not given),3%,-2.6,8,-2,5,2,-2.9,3,0.0,-0.7
COc1cccc(-c2csc(N3CCN(CC(=O)Nc4ccc5c(c4)OCO5)CC3)n2)c1,9%,0.8,x,6,1,6,30,-14,-5.2,-1.3
O=C(Cc1ccsc1)NCC(=O)Nc1ccc(F)c(F)c1,x,5.0,-3,-7,4,4,-1.6,11,-0.7,-0.3
COc1cccc(-n2cc(CN(C)Cc3nc(Cc4cccc(F)c4)no3)cn2)c1,x,-4.2,3,10,-14,-23,-2.1,-28,-5.4,-0.1
COc1cc2c(cc1OC)CN(S(=O)(=O)c1ccc3c(c1)OCCO3)CC2,0%,-3.0,-8,6,x,x,x,u,x,-0.3
Cc1ccc(NC(=O)CN(C)S(=O)(=O)c2ccc3[nH]c(=O)oc3c2)c(C)c1,x,4.1,3,11,4,9,0.7,-4,-4.5,0.6
CCn1cc(-c2cc(C(F)(F)F)n3nc(C(=O)O)cc3n2)c(C)n1,20%,-0.2,-4,-3,x,x,x,-8,x,-0.2
Cc1nn(-c2ccccn2)c2c1C(c1ccccc1Cl)C1=C(N2)c2ccccc2C1=O (stereo not given),-3%,7.0,35,39,3,3,11,-1,7.0,-0.5
Cc1cc(NC(=O)CSc2nnc(N)s2)c([N+](=O)[O-])cc1C,9%,x,-9,7,-5,-13,-1.0,-16,0.8,0.5
COC(=O)c1ccccc1NC(=O)CSc1nnnn1C1CCCCC1,-1%,-3.8,-5,3,x,x,x,-2,x,-0.7
CCn1c(=O)c([N+](=O)[O-])c(Cl)c2ccccc21,x,-2.2,77*,71*,x,x,x,-4,x,u
CCC(C)(C)NC(=O)/C=C/c1cc(OC)c(OC)c(S(=O)(=O)N2CCc3ccccc32)c1,-7%,1.2,9,7,25,13,-10,-1,-0.6,1.4
CCOc1cc(-c2noc(CCC(=O)Nc3cccnc3)n2)ccc1OC,-2%,-1.9,-1,-5,x,x,x,8,x,1.9
COc1ccc(N2C(=O)CC(Sc3n[nH]c(-c4ccc(C)cc4)n3)C2=O)cc1 (stereo not given),10%,-1.2,-8,16,12,6,2.7,15,-1.2,0.3
C[C@@]12C(=O)N(c3cccc(Cl)c3)C(=O)N1[C@H](c1ccc(Cl)cc1)[C@@H]1C(=O)N(C3CCCCC3)C(=O)[C@@H]12,x,0.7,7,10,6,1,2.5,17,1.8,0.5
O=C(COc1ccc2c(c1)OCO2)Nc1ccccc1C(F)(F)F,1%,3.6,-2,-4,-9,-6,-2.4,-28,-2.7,-1.2
CCN(CC)C(=O)CN(c1cccc(OC)c1)S(=O)(=O)c1ccc(C)cc1,-5%,1.6,-5,2,x,x,x,-5,x,0.5
